Compound activity from PubChem.
DUX4 txn inh = DUX4-mediated transcription inhibition; 293T-iDUX4 ZSCAN4-Gaussia luciferase reporter, 24 h; stronger effect = lower value; activity change, negative = inhibition, % (no concentration beside the values); 37,000 tested, 0.8% active;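 active = -10% or lower and over 25 points stronger than a control reporter; inconclusive = -10% or lower with a smaller gap; inactive = above -10%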;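 note: 0% = median of neutral control wells and -100% = median of positive control wells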
DUX4 txn inh difference = second read-out of DUX4 txn inh, no call of its own (marks repeat the call); Gaussia minus Italica difference, %; measured here: selective DUX4 reporter inhibition;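 worked out from the two reporters; negative = selective loss of the DUX4 reporter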
DUX4 txn inh control = second read-out of DUX4 txn inh, no call of its own (marks repeat the call); activity change, negative = inhibition, %; measured here: Italica tet-on control reporter;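 0 = neutral control and -100 = positive control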
Active calls of the source: *; ? = inconclusive; . = not tested or not shown.

Start of the data: the first 10 records, to show the layout:
SMILES	DUX4 txn inh	DUX4 txn inh difference	DUX4 txn inh control
CC=Cc1ccc2n(c1=O)C[C@@H]1[C@@H](CO)[C@H](C(=O)NC3CCC3)[C@H]2N1Cc1cccnc1 (mixture of isomers)	6	3	2.3
O=C(CN1CCOCC1)N1CC2(C1)[C@H](c1ccccc1)[C@H](CO)N2Cc1cccc(F)c1	-3	-5	1.7
COc1cccc(-c2ccc3c(c2)[C@H]2[C@H](CCN2C(=O)C2CCOCC2)[C@H](CO)N3)c1	?	.	.
COc1ccc2c3c([nH]c2c1)[C@H](CO)N(Cc1cccc(Cl)c1)CC31CN(C)C1	-7	-7	-0.1
C[C@@H](NC(=O)C[C@@H]1C=C[C@H](NC(=O)CN2CCOCC2)[C@@H](CO)O1)c1ccccc1	11	6	4.3
CCC(=O)Nc1ccc2c(c1)C(=O)N(C)C[C@H](OC)[C@@H](C)CN(C(=O)COC)[C@@H](C)CO2	4	1	3.7
Cc1cccc(S(=O)(=O)N2CC[C@@H]3[C@@H](CO)Nc4ccc(-c5ccccc5F)cc4[C@@H]32)c1	?	.	.
COc1ccccc1NC(=O)N1C[C@H]2[C@@H](c3ccccc31)[C@@H](CO)N2CC1CCCC1	0	-2	1.0
CC(C)CC#Cc1ccc([C@@H]2[C@@H](CO)N3C(=O)CN(C(=O)CN4CCOCC4)C[C@@H]23)cc1	-5	-5	-0.3
CC(=O)N(C)C[C@@H]1OCc2ccccc2-c2c(n(C)c3ccccc23)C(=O)N([C@@H](C)CO)C[C@@H]1C	8	1	6.7

The listing, from the first entry:
SMILES	DUX4 txn inh	DUX4 txn inh difference	DUX4 txn inh control
CC=Cc1ccc2n(c1=O)C[C@@H]1[C@@H](CO)[C@H](C(=O)NC3CCC3)[C@H]2N1Cc1cccnc1 (mixture of isomers)	6	3	2.3
O=C(CN1CCOCC1)N1CC2(C1)[C@H](c1ccccc1)[C@H](CO)N2Cc1cccc(F)c1	-3	-5	1.7
COc1cccc(-c2ccc3c(c2)[C@H]2[C@H](CCN2C(=O)C2CCOCC2)[C@H](CO)N3)c1	?	.	.
COc1ccc2c3c([nH]c2c1)[C@H](CO)N(Cc1cccc(Cl)c1)CC31CN(C)C1	-7	-7	-0.1
C[C@@H](NC(=O)C[C@@H]1C=C[C@H](NC(=O)CN2CCOCC2)[C@@H](CO)O1)c1ccccc1	11	6	4.3
CCC(=O)Nc1ccc2c(c1)C(=O)N(C)C[C@H](OC)[C@@H](C)CN(C(=O)COC)[C@@H](C)CO2	4	1	3.7
Cc1cccc(S(=O)(=O)N2CC[C@@H]3[C@@H](CO)Nc4ccc(-c5ccccc5F)cc4[C@@H]32)c1	?	.	.
COc1ccccc1NC(=O)N1C[C@H]2[C@@H](c3ccccc31)[C@@H](CO)N2CC1CCCC1	0	-2	1.0
CC(C)CC#Cc1ccc([C@@H]2[C@@H](CO)N3C(=O)CN(C(=O)CN4CCOCC4)C[C@@H]23)cc1	-5	-5	-0.3
CC(=O)N(C)C[C@@H]1OCc2ccccc2-c2c(n(C)c3ccccc23)C(=O)N([C@@H](C)CO)C[C@@H]1C	8	1	6.7
O=C1N[C@H](c2ccccc2)COCc2cn(nn2)CC[C@@H]1Cc1ccc(Cl)cc1	-7	8	-15
COc1ccccc1-c1ccc([C@H]2[C@@H](CO)N3CCCCN(C(=O)NC4CCCC4)C[C@@H]23)cc1	28	10	18
CCC(=O)N1CC2(C1)[C@H](c1ccccc1)[C@H](CO)N2C(=O)NC(C)C	0	-2	2.2
CCCNC(=O)N1CC2(C1)[C@H](c1ccccc1)[C@H](CO)N2C(=O)c1ccncc1	3	4	-0.7
CN(C)C(=O)c1ccc(-c2ccc([C@H]3[C@@H](C#N)N(C(=O)Cc4ccccn4)[C@@H]3CO)cc2)cc1	3	1	1.8
C[C@H]1CN([C@@H](C)CO)C(=O)c2c(c3ccccc3n2C)-c2ccccc2CO[C@H]1CN(C)Cc1ccc2c(c1)OCCN2C	?	.	.
COc1ccc(NC(=O)N(C)C[C@H]2OCc3cnnn3CCCC(=O)N([C@@H](C)CO)C[C@H]2C)cc1	3	2	1.0
C[C@@H]1CN([C@H](C)CO)C(=O)CCCn2nncc2CO[C@@H]1CN(C)C(=O)OCc1ccccc1	-1	-2	1.1
CC(=O)NC[C@@H]1[C@@H](c2ccc(C3=CCCC3)cc2)[C@@H](CO)N1C(=O)C1CCC1	-5	-5	-0.2
O=C(Cc1ccncc1)N1CC[C@@H]2[C@@H](CO)Nc3ccc(-c4cccc(F)c4)cc3[C@@H]21	-9	0	-9.2
CCNC(=O)[C@@H]1[C@@H](CO)[C@@H]2Cn3c(ccc(C4=CCCCC4)c3=O)[C@H]1N2C(=O)Cc1ccccn1	-1	-1	-0.8
CCC(=O)N1CC[C@@H]2[C@@H](CO)Nc3ccc(-c4ccc(C(=O)N(C)C)cc4)cc3[C@@H]21	-5	5	-10
COc1ccc(CN(C)C[C@@H]2Oc3c(NC(=O)c4cnccn4)cccc3C(=O)N([C@@H](C)CO)C[C@H]2C)cc1	2	2	-0.4
O=C(C[C@H]1C[C@@H]2c3cc(NS(=O)(=O)c4ccc(F)cc4)ccc3O[C@@H]2[C@H](CO)O1)NCc1ccccn1	12	8	3.6
COCCNC(=O)C[C@H]1CC[C@@H]2[C@H](COC[C@H](O)CN2Cc2cccc(-c3ccncc3)c2)O1	0	1	-0.5
O=C(c1ccc(F)cc1)N1CC(=O)N2[C@H](CO)[C@@H](c3ccc(C#CC4CCCCC4)cc3)[C@H]2C1	?	.	.
CCCNC(=O)N(C)C[C@H]1Oc2cc(C#C[C@@H](C)O)ccc2S(=O)(=O)N([C@@H](C)CO)C[C@@H]1C	1	-2	2.7
CN(C)C(=O)c1cccc(-c2ccc3c(c2)[C@H]2[C@H](CCN2C(=O)c2ccccc2)[C@@H](CO)N3C)c1	?	.	.
COc1ccc2c3c(n(C)c2c1)[C@H](CO)N(CC1CCOCC1)CC31CCN(C(=O)CN(C)C)CC1	14	9	5.5
CNC[C@@H]1Oc2ccc(NC(=O)Cn3cnnn3)cc2C(=O)N([C@H](C)CO)C[C@@H]1C	4	3	1.1
CN1C(=O)c2cc(NC(=O)c3ccc(Cl)cc3)ccc2OC[C@H]2O[C@H](CC(=O)NCc3cccc(F)c3)CC[C@H]21	-4	-5	1.2
COc1cccc(-c2ccc([C@@H]3[C@H]4CN(C(=O)CN5CCOCC5)CC(=O)N4[C@H]3CO)cc2)c1	-9	-7	-1.2
O=C(C[C@H]1CC[C@H]2[C@@H](COC[C@H](O)CN2C(=O)Nc2ccc(Cl)cc2)O1)NC1Cc2ccccc2C1	-8	-11	3.1
COc1ccc(S(=O)(=O)Nc2cccc3c2O[C@H](CN(C)S(=O)(=O)c2cn(C)cn2)[C@@H](C)CN([C@@H](C)CO)C3=O)cc1	1	3	-2.7
CN1C(=O)c2cc(NC(=O)Nc3ccc(Cl)cc3)ccc2OC[C@@H]2O[C@@H](CC(=O)NCCN3CCCCC3)CC[C@H]21	2	1	0.9
CCC(=O)N1[C@H](CO)[C@@H](c2ccccc2)C12CN(C(=O)c1ccc(F)cc1)C2	3	0	3.7
CC(=O)N1CC(=O)N2[C@H](CO)[C@@H](c3ccc(-c4ccccc4)cc3)[C@H]2C1	2	-1	3.1
C[C@H]1CN([C@@H](C)CO)C(=O)CCCn2cc(nn2)CO[C@@H]1CN(C)C(=O)Nc1cccc(Oc2ccccn2)c1	3	-3	5.5
CO[C@@H]1CN(C)C(=O)c2cc(NC(=O)c3ccccc3F)ccc2OC[C@@H](C)N(CC2CCOCC2)C[C@H]1C	-1	1	-2.1
CN1C(=O)c2cc(NC(=O)Cc3cccs3)ccc2OC[C@@H]2O[C@H](CC(=O)N[C@@H]3CCN(Cc4ccccc4)C3)CC[C@H]21	1	2	-0.3
CC(C)C#Cc1ccc([C@@H]2[C@@H](C#N)N(C(=O)c3cccc(F)c3)[C@H]2CO)cc1	2	2	0.2
CC(C)NC(=O)N1[C@H](C#N)[C@@H](c2ccc(C#CC3CCCCC3)cc2)[C@H]1CO	-4	-5	1.5
COCC#Cc1ccc([C@H]2[C@H]3CN(C(=O)c4ccncc4)CC(=O)N3[C@H]2CO)cc1	22	4	18
C[C@H]1CN([C@@H](C)CO)C(=O)Cc2cc(NC(=O)C3CCCCC3)ccc2O[C@@H]1CN(C)Cc1ccc(Cl)c(Cl)c1	6	2	3.9
COCC(=O)N1[C@H](CO)[C@@H](c2ccccc2)C12CN(C(=O)NC1CCCCC1)C2	2	-4	5.9
COc1cccc(NC(=O)N(C)C[C@H]2Oc3cc(-c4cccc(C(=O)N(C)C)c4)ccc3S(=O)(=O)N([C@H](C)CO)C[C@@H]2C)c1	1	1	-0.7
CN(C)CC(=O)N[C@H]1CC[C@@H](CC(=O)O)O[C@@H]1CO	-1	-4	3.1
C[C@H](NC(=O)C[C@H]1C[C@H]2c3cc(NC(=O)Cc4ccncc4)ccc3O[C@H]2[C@@H](CO)O1)c1ccccc1	-9	-6	-2.2
COc1ccccc1NC(=O)N1[C@H](C#N)[C@@H](c2ccccc2)[C@@H]1CO	-4	0	-4.1
CCNC(=O)[C@@H]1[C@@H](CO)[C@@H]2Cn3c(ccc(-c4ccccc4)c3=O)[C@@H]2N1C(=O)C1CCCC1	-1	2	-2.8
CCNC(=O)[C@H]1[C@H](CO)[C@H]2Cn3c(ccc(-c4cccc(F)c4)c3=O)[C@H]2N1CC1CCOCC1	9	5	3.4
CC(C)(C)[S@](=O)N1Cc2cc(C(=O)N3CCCCC3)nc(-c3cccc(Br)c3)c2[C@@H]1CCO	2	3	-0.6
C[C@@H](NC(=O)C[C@@H]1CC[C@H]2[C@@H](COC[C@@H](O)CN2C(=O)Nc2cccc(F)c2)O1)c1ccccc1	4	-15	19
C[C@@H]1CN([C@@H](C)CO)S(=O)(=O)c2ccc(C#CCC3CCCC3)cc2O[C@@H]1CN(C)C(=O)c1cnccn1	-1	-2	0.9
C[C@H](CO)N1C[C@H](C)[C@H](CN(C)Cc2ccc(-c3ccccc3)cc2)Oc2ccc(N(C)C)cc2CC1=O	-3	0	-2.5
CO[C@@H]1CN(C)C(=O)c2ccc(NC(=O)CC(F)(F)F)cc2OC[C@@H](C)N(C(=O)c2ccccc2F)C[C@@H]1C	2	6	-3.2
O=C(Cc1cccnc1)N1[C@H](CO)[C@H](c2ccccc2)[C@H]1CNCC1CCC1	3	-1	3.5
COC(=O)[C@@H]1[C@@H](CO)[C@@H]2Cn3c(ccc(-c4ccccc4)c3=O)[C@@H]2N1Cc1ccccn1	2	9	-6.6
CCS(=O)(=O)N1Cc2cc(C(=O)N(C)C)nc(-c3cccc(-c4ccc(C#N)cc4)c3)c2[C@H]1CCO	1	-2	2.6
COc1cccc(S(=O)(=O)N2C[C@H](O)COC[C@@H]3O[C@@H](CC(=O)NCCCN4CCOCC4)CC[C@H]32)c1	7	5	2.0

(list continues)
SMILES	DUX4 txn inh	DUX4 txn inh difference	DUX4 txn inh control
CO[C@H](CN(C)C(=O)Nc1ccc(C(F)(F)F)cc1)[C@H](C)CN(Cc1ccccc1Cl)[C@@H](C)CO	-2	-2	-0.2
C[C@@H]1CCCCO[C@H](CN(C)C(=O)Nc2ccc(C(F)(F)F)cc2)[C@@H](C)CN([C@@H](C)CO)C(=O)c2cc(NS(=O)(=O)c3cn(C)cn3)ccc2O1	2	-4	5.6
O=C(c1cccc(F)c1)N1CC(=O)N2[C@@H](CO)[C@@H](c3ccc(-c4ccccc4F)cc3)[C@@H]2C1	-1	0	-1.4
CO[C@@H](CN(C)C(=O)Nc1ccc(C(F)(F)F)cc1)[C@H](C)CN(Cc1ccccc1Cl)[C@H](C)CO	1	3	-2.5
COc1ccc(S(=O)(=O)N[C@@H]2CC[C@@H](CCNC(=O)Cc3ccccn3)O[C@@H]2CO)cc1	?	.	.
C/C=C/c1ccc(C2[C@H]3CNC[C@@H]2N3Cc2ccc(OC)cc2)cc1 (stereo partly specified)	5	-1	5.2
C[C@H](O)C#Cc1ccc([C@@H]2[C@H](CO)N3CCCCN(S(=O)(=O)c4ccccc4)C[C@@H]23)cc1	1	12	-12
O=C1N[C@@H](c2ccccc2)COCc2cn(nn2)CC[C@H]1Cc1cccc(Cl)c1	-3	-5	3.0
COc1ccc(-c2ccccc2[C@@H]2[C@@H](C#N)N(C(=O)C3CC3)[C@H]2CO)cc1	4	6	-1.5
CC(=O)N1[C@@H](CO)[C@H](c2ccccc2)[C@@H]1CN(CC1CCC1)C(=O)CN(C)C	-1	1	-2.4
COc1ccc(CN2C[C@H](C)[C@@H](OC)CN(C)C(=O)c3ccc(NC(C)=O)cc3OC[C@@H]2C)cc1	3	0	3.1
C[C@@H]1CN([C@H](C)CO)C(=O)c2cccc(NC(=O)Nc3ccc(F)cc3)c2O[C@@H]1CN(C)Cc1ccc(-c2ccccc2)cc1	0	0	0.6
N#C[C@H]1[C@@H](c2ccccc2-c2ccc(F)cc2)[C@@H](CO)N1c1ncc(-c2ccccc2)s1	?	.	.
COc1ccc(NC(=O)N(C)C[C@H]2OCc3cnnn3CCCC(=O)N([C@H](C)CO)C[C@@H]2C)c(OC)c1	2	5	-2.9
CCCN1C[C@H](C)[C@@H](OC)CN(C)C(=O)c2cc(NC(=O)c3cccc(OC)c3)ccc2OC[C@@H]1C	?	.	.
O=C(Nc1ccccc1)[C@H]1[C@H](CO)[C@H]2Cn3c(cccc3=O)[C@H]2N1CC1CCOCC1	11	15	-4.0
CC(C)NC(=O)N(C)C[C@H]1Oc2ncc(-c3ccccc3F)cc2C(=O)N([C@H](C)CO)C[C@H]1C	-3	1	-3.3
C[C@H](CO)N1C[C@H](C)[C@@H](CN(C)C(=O)CCC(F)(F)F)OCCCC[C@H](C)Oc2ccc(NS(=O)(=O)c3cccs3)cc2C1=O	2	-1	3.1
CC(=O)N1CCCCN2[C@@H](CO)[C@H](c3ccc(-c4cccc(C)c4)cc3)[C@@H]2C1	8	4	4.4
N[C@@H]1CC[C@@H](CCn2cc(C3(O)CCCC3)nn2)O[C@H]1CO	0	-5	5.3

A portion of the library (hit frequency here may not be typical).
